Yeast UUG start: yeast start codon fidelity modulation; S. cerevisiae UUG-firefly luciferase reporter, luminescence/redox ratio; activity score, % at 18.7 µM; 350,000 compounds, 0.13% hits;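 active = replicate mean at a twofold rise or more, about +100% in these data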;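 also: firefly luciferase made from a UUG start codon reports start codon fidelity; reporter light over untreated wells divided by growth signal over untreated wells; some hits fall short of that in this replicate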
An asterisk follows results filed as active. The list is partial (hit frequency here may not be typical).

Molecule	Yeast UUG start
C[C@@H]1CN([C@@H](C)CO)C(=O)c2cc(NS(=O)(=O)c3cn(C)cn3)ccc2O[C@@H]1CN(C)C(=O)Nc1ccc2c(c1)OCO2	-2.4
COc1cccc(S(=O)(=O)Nc2ccc3c(c2)C(=O)N(C)C[C@H](OC)[C@@H](C)CN(Cc2ccccc2F)[C@@H](C)CO3)c1	16.4
Cc1cccc(-c2ccc([C@@H]3[C@@H](CO)N4CCCCN(C(=O)c5ccc6c(c5)OCO6)C[C@H]34)cc2)c1	14.8
N#Cc1cccc(-c2ccc3c(c2)[C@@H]2[C@@H](CCN2S(=O)(=O)c2ccccc2F)[C@H](CO)N3)c1	-21.4
COc1ccc(S(=O)(=O)N(C)C[C@@H]2Oc3c(NS(=O)(=O)c4ccc(C)cc4)cccc3C(=O)N([C@H](C)CO)C[C@@H]2C)cc1	25.2
CO[C@@H]1CN(C)C(=O)c2cc(NS(=O)(=O)c3ccc(Cl)cc3)ccc2OC[C@@H](C)N(C(=O)Cc2cccnc2)C[C@H]1C	-2.4
C[C@H]1CN([C@@H](C)CO)C(=O)Cc2cc(N(C)C)ccc2O[C@H]1CN(C)S(=O)(=O)c1ccc(Cl)cc1	5.0
C[C@H]1CN([C@@H](C)CO)C(=O)c2cc(NS(=O)(=O)c3cccs3)ccc2O[C@@H]1CN(C)Cc1ccncc1	-8.3
COc1ccc(CN(C)C[C@@H]2Oc3ccc(NC(=O)Nc4c(C)noc4C)cc3CC(=O)N([C@@H](C)CO)C[C@H]2C)cc1	-7.4
O=C(c1cccc(F)c1)N1C[C@@H]2[C@H](c3ccccc31)[C@@H](CO)N2C(=O)c1ccccn1	21.0
CO[C@@H]1CN(C)C(=O)c2ccc(NC(=O)C3CC3)cc2OC[C@@H](C)N(C(=O)Cc2ccccn2)C[C@@H]1C	-0.4
C[C@@H]1CN([C@H](C)CO)C(=O)c2cccc(NC(=O)Nc3cccc4ccccc34)c2O[C@H]1CN(C)S(=O)(=O)c1cn(C)cn1	-4.0
O=C(Nc1ccccc1F)N1CCCCN2[C@@H](CO)[C@@H](c3ccc(C#Cc4cccnc4)cc3)[C@@H]2C1	10.3
CCN(C[C@@H]1[C@H](c2ccccc2)[C@@H](CO)N1C(C)=O)C(=O)c1ccccn1	6.8
COc1ccccc1CNC(=O)C[C@@H]1CC[C@H]2[C@@H](COC[C@H](O)CN2C(=O)Nc2ccc(Cl)cc2)O1	4.1
COc1cccc(-c2ccc3c(c2)[C@@H]2[C@@H](CCN2C(=O)Cc2ccncc2)[C@@H](CO)N3)c1	-11.3
COc1ccc(NC(=O)N(C)C[C@H]2Oc3ccc(NC(=O)Nc4ccc5c(c4)OCO5)cc3C(=O)N([C@@H](C)CO)C[C@H]2C)cc1	2.2
C[C@@H]1CN([C@@H](C)CO)C(=O)c2cc(NC(=O)Nc3ccccc3)ccc2O[C@H]1CN(C)S(C)(=O)=O	0.7
CCC(=O)Nc1ccc2c(c1)C(=O)N(C)C[C@@H](OC)[C@@H](C)CN(Cc1ccccc1C(=O)O)[C@@H](C)CO2	-3.4
O=C(c1cccc(F)c1)N1CC[C@@H]2[C@H](CO)Nc3ccc(-c4ccccc4F)cc3[C@@H]21	-11.0
COc1ccccc1-c1ccc([C@@H]2[C@@H](CO)N3CCCCN(C(=O)NC4CCCC4)C[C@@H]23)cc1	-2.6
O=C(Nc1ccccc1F)N1CCCCN2[C@H](C1)[C@H](c1ccc(-c3cccnc3)cc1)[C@@H]2CO	-11.9
Cc1cccc(S(=O)(=O)N2CCCCN3[C@@H](CO)[C@H](c4ccc(C#C[C@@H](C)O)cc4)[C@@H]3C2)c1	-5.7
COc1ccc(C#Cc2ccc([C@H]3[C@@H](CO)N4CCCCN(C(=O)Nc5ccc(F)cc5)C[C@H]34)cc2)cc1	9.7
CC(=O)N1C[C@H]2[C@@H](c3ccccc31)[C@H](CO)N2S(=O)(=O)c1ccccc1	-16.7

Two of the compounds above, with the structure last.
Yeast UUG start	Structure
-21.4	N#Cc1cccc(-c2ccc3c(c2)[C@@H]2[C@@H](CCN2S(=O)(=O)c2ccccc2F)[C@H](CO)N3)c1
25.2	COc1ccc(S(=O)(=O)N(C)C[C@@H]2Oc3c(NS(=O)(=O)c4ccc(C)cc4)cccc3C(=O)N([C@H](C)CO)C[C@@H]2C)cc1

The list goes on.
Molecule	Yeast UUG start
O=S(=O)(c1ccc(F)cc1)N1CCCCN2[C@H](CO)[C@H](c3ccc(C4=CCCCC4)cc3)[C@@H]2C1	24.3
CC(C)NC(=O)N1[C@@H](CO)[C@H](c2ccccc2)[C@@H]1CN(C)C(=O)c1ccncc1	-7.0
C[C@@H]1CN([C@H](C)CO)C(=O)c2cc(NC(=O)CCCN(C)C)ccc2O[C@H]1CN(C)Cc1ccc(-c2ccccc2)cc1	-3.3
CCCNC(=O)C[C@@H]1CC[C@H]2[C@@H](COC[C@H](O)CN2Cc2ccc(Cl)c(Cl)c2)O1	12.9
N#Cc1ccc(-c2ccc([C@@H]3[C@@H](CO)N4CCCCN(C(=O)Nc5ccc(F)cc5)C[C@@H]34)cc2)cc1	-0.8
C[C@H]1CN([C@@H](C)CO)C(=O)c2cc(NS(=O)(=O)c3cn(C)cn3)ccc2O[C@@H]1CN(C)C(=O)Nc1ccc2c(c1)OCO2	-8.0
C[C@H](CO)N1C[C@H](C)[C@@H](CN(C)C)Oc2ccc(NC(=O)CCN3CCOCC3)cc2C1=O	-8.1
C[C@H](NC(=O)C[C@H]1CC[C@@H]2[C@H](COC[C@@H](O)CN2C(=O)Nc2cccc(F)c2)O1)c1ccccc1	17.1
CCCC(=O)Nc1ccc2c(c1)C(=O)N(C)[C@@H]1CC[C@H](CC(=O)NCCc3ccccc3)O[C@@H]1CO2	-2.8
CO[C@H]1CN(C)C(=O)c2cc(NC(C)=O)ccc2OC[C@H](C)N(C(=O)Cc2ccccn2)C[C@@H]1C	9.7
CO[C@@H]1CN(C)C(=O)c2ccc(NS(C)(=O)=O)cc2OC[C@H](C)NC[C@H]1C	-21.0
CN1c2ccc(Br)cc2[C@@H]2[C@@H](CCN2C(=O)C2CCCCC2)[C@H]1CO	25.4
CCCNC(=O)C[C@@H]1CC[C@H]2[C@H](COc3ccc(NC(=O)c4cccs4)cc3C(=O)N2C)O1	5.5
COc1ccccc1NC(=O)N1C[C@H]2[C@@H](c3ccccc31)[C@H](CO)N2Cc1ccc2c(c1)OCO2	11.8
C/C=C/c1ccc([C@@H]2[C@H](CO)N3CCCCN(S(=O)(=O)c4cccc(C)c4)C[C@@H]23)cc1	6.0
O=C(NC[C@@H]1[C@H](c2ccccc2)[C@H](CO)N1CC1CCCC1)c1ccccc1	-3.4
Cc1ccc(S(=O)(=O)Nc2ccc3c(c2)CC(=O)N([C@@H](C)CO)C[C@@H](C)[C@@H](CN(C)C(=O)NC2CCCCC2)O3)cc1	5.7
Cc1ccccc1S(=O)(=O)N1CC[C@@H]2[C@H]1c1cc(-c3cccc(C#N)c3)ccc1N[C@@H]2CO	2.4
Cc1ccc(S(=O)(=O)N(C)C[C@@H]2Oc3c(NC(=O)c4nc5ccccc5s4)cccc3C(=O)N([C@H](C)CO)C[C@H]2C)cc1	-15.7
COc1cccc(-c2ccc3c(c2)[C@@H]2[C@@H](CCN2S(=O)(=O)c2cccc(OC)c2)[C@H](CO)N3)c1	-19.0
OC[C@H]1Nc2ccc(C#Cc3ccc(F)cc3)cc2[C@H]2[C@@H]1CCN2Cc1ccc2c(c1)OCO2	-6.4
O=C(C1CCC1)N1CC[C@@H]2[C@H]1c1cc(C#Cc3cccc(F)c3)ccc1N[C@@H]2CO	-16.3
CSc1ccc(CN(C)C(=O)C2CCN(C(=O)Nc3ccccc3)CC2)cc1	-6.7
C[C@@H]1CN([C@@H](C)CO)C(=O)c2cccc(NC(=O)Nc3ccc(C(F)(F)F)cc3)c2O[C@H]1CN(C)S(C)(=O)=O	9.0
CCCNC(=O)N(C)C[C@H]1[C@H](c2ccccc2)[C@@H](CO)N1C(=O)c1ccccc1	-2.0
CC(=O)N(C[C@H]1N[C@H](CO)[C@@H]1c1ccccc1)C(C)C	9.2
COc1ccc(S(=O)(=O)Nc2cccc3c2O[C@H](CN(C)CC2CC2)[C@H](C)CN([C@H](C)CO)C3=O)cc1	-2.2
C[C@H]1CN([C@@H](C)CO)C(=O)c2cccc(NS(=O)(=O)c3ccc(F)cc3)c2O[C@H]1CN(C)C	4.1
CN(C)C(=O)c1ccc(-c2ccc([C@@H]3[C@H](CO)N4CCCCN(Cc5cncnc5)C[C@@H]34)cc2)cc1	-7.5
O=C(C[C@@H]1CC[C@H]2[C@@H](COC[C@@H](O)CN2S(=O)(=O)c2ccc(Cl)cc2)O1)N[C@H]1CCN(Cc2ccccc2)C1	-3.8
COc1cccc(C(=O)Nc2ccc3c(c2)OC[C@H](C)N(CC2CC2)C[C@@H](C)[C@H](OC)CN(C)C3=O)c1	-0.1
O=S(=O)(c1ccc(F)cc1)N1C[C@@H]2[C@H](c3ccccc31)[C@@H](CO)N2Cc1ccccc1Cl	43.6
C[C@@H]1CN([C@@H](C)CO)C(=O)c2cc(NC(=O)CCC(F)(F)F)ccc2O[C@@H]1CN(C)S(=O)(=O)c1cccs1	0.9
COCC(=O)Nc1ccc2c(c1)OC[C@@H](C)N(Cc1ccccc1OC)C[C@H](C)[C@@H](OC)CN(C)C2=O	-6.6
C[C@H](CO)N1C[C@H](C)[C@H](CN(C)S(=O)(=O)c2cn(C)cn2)Oc2c(NC(=O)Nc3ccc(C(F)(F)F)cc3)cccc2C1=O	5.1
CN(C)C(=O)c1cccc(-c2ccc([C@@H]3[C@H]4CN(CC5CCOCC5)CCCCN4[C@H]3CO)cc2)c1	10.7
COc1ccc(C(=O)Nc2ccc3c(c2)C(=O)N(C)C[C@H](OC)[C@@H](C)CN(C(C)=O)[C@H](C)CO3)cc1	-12.0
O=C(Nc1ccccc1)N1C[C@@H]2[C@H](c3ccccc31)[C@H](CO)N2C(=O)c1ccccc1F	-13.0
C[C@H](CO)N1C[C@H](C)[C@H](CN(C)CC2CC2)Oc2ccc(NS(=O)(=O)c3ccc(F)cc3)cc2CC1=O	6.3
CCCN1C[C@H](C)[C@@H](OC)CN(C)C(=O)c2cc(NC(=O)NC3CCCCC3)ccc2OC[C@H]1C	9.8
C[C@H]1CN([C@@H](C)CO)C(=O)c2cccc(NC(=O)c3ccncc3)c2O[C@@H]1CN(C)S(C)(=O)=O	-13.0
COc1cccc(C(=O)Nc2ccc3c(c2)OC[C@@H](C)N(CC2CC2)C[C@H](C)[C@@H](OC)CN(C)C3=O)c1	-5.4
C[C@H]1CN([C@@H](C)CO)C(=O)Cc2cc(NC(=O)Cc3cn(C)c4ccccc34)ccc2O[C@H]1CN(C)S(C)(=O)=O	18.5
COc1ccc(NC(=O)N2C[C@@H](O)COC[C@H]3O[C@H](CC(=O)N4CCN(C)CC4)CC[C@@H]32)cc1	-4.6
COc1ccccc1-c1ccc([C@@H]2[C@H](CO)N3CCCCN(Cc4ccncc4)C[C@@H]23)cc1	-17.4
COCC#Cc1ccc([C@@H]2[C@H]3CN(S(=O)(=O)c4ccccc4F)CCCCN3[C@H]2CO)cc1	-0.9
CCCC#Cc1ccc([C@@H]2[C@@H](CO)N3CCCCN(C(=O)NC4CCCC4)C[C@@H]23)cc1	-1.9
O=C(c1cccnc1)N1CCCCN2[C@H](CO)[C@@H](c3ccc(C#Cc4ccccc4)cc3)[C@H]2C1	-9.6
CO[C@H]1CN(C)C(=O)c2cc(NC(C)=O)ccc2OC[C@@H](C)N(Cc2ccccn2)C[C@H]1C	2.8
C[C@H](O)C#Cc1ccc([C@H]2[C@H]3CN(S(=O)(=O)c4ccccc4)CCCCN3[C@H]2CO)cc1	15.1

Quoted at random: five entries already listed, in no set order.
Molecule	Yeast UUG start
C[C@H]1CN([C@@H](C)CO)C(=O)c2cccc(NS(=O)(=O)c3ccc(F)cc3)c2O[C@H]1CN(C)C	4.1
CN(C)C(=O)c1cccc(-c2ccc([C@@H]3[C@H]4CN(CC5CCOCC5)CCCCN4[C@H]3CO)cc2)c1	10.7
COc1ccccc1-c1ccc([C@@H]2[C@H](CO)N3CCCCN(Cc4ccncc4)C[C@@H]23)cc1	-17.4
CCCN1C[C@H](C)[C@@H](OC)CN(C)C(=O)c2cc(NC(=O)NC3CCCCC3)ccc2OC[C@H]1C	9.8
CO[C@H]1CN(C)C(=O)c2cc(NC(C)=O)ccc2OC[C@@H](C)N(Cc2ccccn2)C[C@H]1C	2.8

Other results
Molecule	Yeast UUG start
C[C@H]1CN([C@@H](C)CO)C(=O)c2cc(NC(=O)Cn3cnnn3)ccc2O[C@@H]1CN(C)Cc1ccc(C(=O)O)cc1	-3.2
Cc1noc(C)c1NC(=O)Nc1cccc2c1O[C@H](CN(C)S(=O)(=O)c1cn(C)cn1)[C@H](C)CN([C@H](C)CO)C2=O	16.8
CO[C@@H]1CN(C)C(=O)c2ccc(NC(C)=O)cc2OC[C@@H](C)N(S(=O)(=O)c2cn(C)cn2)C[C@@H]1C	11.8
C[C@@H]1CN([C@H](C)CO)C(=O)CCCn2nncc2CO[C@H]1CN(C)C(=O)Nc1ccc(-c2cccs2)cc1	-1.2
CC=Cc1ccc2n(c1=O)C[C@H]1[C@H](CO)[C@@H](C(=O)N3CCOCC3)[C@@H]2N1CC1CC1 (mixture of isomers)	-0.1
CN1C(=O)c2cc(NC(=O)C3CC3)ccc2OC[C@H]2O[C@@H](CC(=O)NC3CCC3)CC[C@H]21	12.1

Screening data: PubChem, Broad Institute
